Screens (PubChem BioAssay)
MARV entry inh: blocks Marburg virus binding to or entry into cells; Potency, µM (top dose mostly 37.8 µM), for inactives: top-dose activity change, negative = inhibition, actives largely listed as inhibitors; Marburg virus pseudotyped entry inhibition, cell reporter; control for the full effect not named in the record; about a third of the inactives were read at about 46 µM; 300,000 compounds, 1.8% hits; active = well fitted inhibition curve with a large enough effect; inconclusive = small, poorly fitted or top-dose-only effect, or effect the other way; inactive = flat fitted curve, though single readings scatter; tested in HEK293 cells; about a fifth of its hits are not listed in these tables; further: on the % scale 0 is the no-effect control and ±100 the full control effect; luciferase read-out
SARS PLpro yeast: SARS-CoV PLP inhibition in yeast. S. cerevisiae expressing SARS-CoV PLpro, growth rescue; control for the full effect not named in the record. Potency, µM (series often up to 32.9 µM), for the others: at the top dose activity, positive = growth rescue. 330,000 compounds, 0.19% hits; active means well fitted rising curve with a large enough effect; inconclusive means small, poorly fitted or top-dose-only effect; inactive means no such curve, though single readings can be large or run the other way; further: 0% is about no effect; nearly all actives have a fitted effect of over 55% in size; growth read by luminescence after 48 h
RE007 growth inh: less growth of the S. pombe RE007 Vpr strain | S. pombe RE007 Vpr strain, BacTiter-Glo ATP luminescence, 24 h; control for the full effect not named in the record | Potency, µM (doses to about 92.2 µM), without a hit: top-dose activity change, negative = less growth | 360,000 compounds, 0.21% hits; active = well fitted falling curve with a large enough effect; inconclusive = small, poorly fitted or top-dose-only effect; inactive = no such curve, though single readings can be large or run the other way;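 further: on the % scale 0 is the no-effect control and ±100 the full control effect; nearly all actives have a fitted effect of over 50% in size; the assay follows cell death caused by Vpr and the record does not say whether a fall means rescue or toxicity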
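Fission yeast strain RE007, carrying one chromosomally integrated HIV-1 vpr copy, was seeded at OD 0.01 in PMG+AL medium with 23 nL pinned compound. After 24 h at 30 °C and 99% humidity, viability was read by BacTiter-Glo luminescence.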
Cruzain inh noDet: blocks cruzain activity in detergent-free assay; P25779; purified cruzain, Z-FR-AMC fluorescence, no detergent; Potency, µM, for inactives: max response, negative = inhibition, most hits filed as inhibitors; 200,000 compounds, 2.3% hits;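 further: plate controls were enzyme without inhibitor for no effect and buffer without enzyme for full effect; nearly all actives have a fitted effect of over 40% in size; top concentration of the series not given in the record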
Target sequence (P25779 123-467 limits assumed): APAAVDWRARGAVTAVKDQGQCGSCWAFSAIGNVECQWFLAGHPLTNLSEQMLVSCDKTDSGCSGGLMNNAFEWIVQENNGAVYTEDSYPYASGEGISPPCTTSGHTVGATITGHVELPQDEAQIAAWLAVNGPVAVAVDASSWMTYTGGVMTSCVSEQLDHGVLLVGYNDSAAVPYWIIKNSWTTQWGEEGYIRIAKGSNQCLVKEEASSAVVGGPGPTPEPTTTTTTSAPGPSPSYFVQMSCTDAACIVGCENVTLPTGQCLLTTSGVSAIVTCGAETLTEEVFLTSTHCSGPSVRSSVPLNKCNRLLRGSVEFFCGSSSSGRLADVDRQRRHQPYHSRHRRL
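Purified cruzain at 1.5 nM, pre-incubated 15 min with compound at room temperature in 100 mM sodium acetate pH 5.5, 5 mM DTT, 0.00005% Triton X-100. Reaction started with 2 uM Z-FR-AMC; AMC fluorescence increase over 60 s gives rate.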
Lassa entry inh: Lassa virus entry inhibition; Potency, µM (highest dose often 37.9 µM), inactives show at the highest dose activity change, negative = inhibition, most hits filed as inhibitors; Lassa virus pseudotype entry inhibition, cell reporter; control for the full effect not named in the record; 300,000 compounds, 1.2% hits; AID 540256; active means well fitted inhibition curve with a large enough effect; inconclusive means small, poorly fitted or top-dose-only effect, or effect the other way; inactive means flat fitted curve, though single readings scatter; tested in HEK293 cells; further: on the % scale 0 is the no-effect control and ±100 the full control effect; nearly all actives have a fitted effect of over 50% in size; luciferase read-out
Cruzain Triton: blocks cruzain activity in presence of Triton detergent; P25779; purified cruzain, Z-FR-AMC fluorescence, 0.01% Triton; Potency, µM, without a hit: max response, negative = inhibition, usual class: inhibitors; 200,000 compounds, 0.43% hits; AID 1478;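 further: plate controls were neutral wells for no effect and buffer without enzyme for full effect; nearly all actives have a fitted effect of over 40% in size; top concentration of the series not given in the record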
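Cysteine protease activity tested under reducing, mildly acidic conditions (100 mM sodium acetate pH 5.5, 5 mM DTT) plus 0.01% Triton X-100. Cruzain 1.5 nM; substrate Z-FR-AMC 2 uM; 15 min compound preincubation at room temperature.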
StopGo reporter: FMDV 2A StopGo reporter, luciferase signal. 410,000 compounds, 1.2% hits. AID 1159524. Potency, µM (top dose mostly 57.9 µM), without a hit: top-dose signal change, negative = less light. human cells with a luciferase reporter of 2A StopGo recoding; control for the full effect not named in the record; active = well fitted falling curve with a large enough effect; inconclusive = small, poorly fitted or top-dose-only effect; inactive = no such curve, though single readings can be large or run the other way; tested in HEK293T cells; further: on the % scale 0 is the no-effect control and ±100 the full control effect; nearly all actives have a fitted effect of over 45% in size; luciferase light after 4 h
NS1 inh: blocks influenza NS1 protein function; S. cerevisiae slowed by influenza A NS1, growth recovery by OD600; Potency, µM (top dose mostly 46.1 µM), inactives show at the top dose activity, positive = more growth; 270,000 compounds, 0.4% hits; active means well fitted rising curve with a large enough effect; inconclusive means small, poorly fitted or top-dose-only effect; inactive means no such curve, though single readings can be large or run the other way; further: nearly all actives have a fitted effect of over 50% in size
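Recovery from NS1-induced slow growth read by OD600 in budding yeast switched to galactose assay medium (pH 6.0, -URA) at 1:100 dilution. Compound 23 nl per well; the matching strain lacking NS1 serves as control.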
An asterisk follows results filed as active; ? = inconclusive; · = not tested or not shown; [ ] = remark or other dose. Unless noted, the call rests on the fitted dose curve; in most records, active means well fitted curve in the direction sought with a large enough effect; inconclusive means small, poorly fitted or top-dose-only effect, or another doubt; inactive means no such curve, though single readings can be large; an effect the other way counts as inactive or inconclusive. Potency means the concentration at half of the fitted maximal effect.

Each structure is followed by: MARV entry inh	SARS PLpro yeast	RE007 growth inh	Cruzain inh noDet	Lassa entry inh	Cruzain Triton	StopGo reporter	NS1 inh
CCCNC(=S)NC1CC2CCC(C1)N2Cc1ccccc1 (stereo not drawn)
  ?	7.8%	-6.0%	-2.8%	-13.9%	6.7%	-9.2%	-6.9%
COC(=O)CN(c1cccc(C(C)=O)c1)S(C)(=O)=O
  12.9%	0.9%	0.6%	1.7%	14.7%	1.5%	4.5%	-2.5%
COC(=O)/C=C1/N/C(=N\c2nc(C)cc(C)n2)N(c2ccccc2)C1=O
  ?	7.2%	-2.2%	5.0%	-15.9%	-1.7%	-26.1%	-5.9%
COc1ccc(CNC(=O)CCc2c(C)nc3c4cccnc4nn3c2C)cc1
  0.0%[46.1 µM]	·	·	-9.4%	0.1%[46.1 µM]	-3.3%	-15.2%	·
COc1ccc(Cn2c(O)c(C=NCCN3CCOCC3)c(=O)[nH]c2=O)cc1
  1.8%	-7.2%	21.0%	-2.6%	?	-0.8%	-1.1%	4.3%
OC(Cc1cccnc1)(Cc1cccnc1)c1cc2ccccc2[nH]1
  ?	11.5%	?	5.1%	5.8%	-2.2%	12.2%	8.8%
N#Cc1c(-c2ccccc2)no[n+]1[O-]
  11.2µM*	·	·	4.2%	·	-2.6%	·	-1.4%
COc1ccc(OC)c2c1CCC2=O
  12.9%	2.2%	-2.1%	2.7%	10.6%	-2.1%	0.0%	-8.2%
Cc1cc(NC(=O)C2CCCN(S(=O)(=O)c3c(C)noc3C)C2)no1 (stereo not drawn)
  ·	1.6%	3.1%	-1.1%	·	9.7%	-12.6%	-7.8%
Cc1cc(C)c(C#N)c(SCC(=O)NC(C)(C)C)n1
  ·	0.7%	6.5%	9.0%	·	1.5%	-7.1%	-5.6%
Cc1cc(C)cc(OCC(=O)N(Cc2ccc(Cl)cc2)C2CCS(=O)(=O)C2)c1 (stereo not drawn)
  -19.4%[46.1 µM]	·	·	?	7.0%[46.1 µM]	-6.8%	9.3%	·
COc1ccc2c(CNCc3ccccc3OC)c(C(=O)O)n(Cc3ccc(F)cc3Cl)c2c1
  ·	·	·	-5.5%	15.9%[46.1 µM]	-0.4%	-7.1%	·
Cc1ccc(C(=O)Nc2sc3c(c2C(=O)NCc2ccco2)CCCC3)cc1
  1.3%[46.1 µM]	11.1%	-14.3%	?	-1.7%	-24.0%	8.3%	2.6%
O=c1c2ccccc2[nH]c(=S)n1CCN1CCN(Cc2ccccc2)CC1
  -3.7%	-0.9%	-3.9%	-11.8%	-0.6%	-2.6%	-4.8%	0.7%
O=C(CCCCC(=O)NN=Cc1ccccc1O)NN=Cc1ccccc1O
  ?	·	-13.2%	·	?	·	5.3%	·
Cc1occc1C(=O)N/N=C/C(Br)=C\c1ccccc1
  ?	-6.0%	5.5%	·	12.6µM*	·	?	-46.4%
Cc1ccccc1OCC(=O)N/N=C/c1cc2ccccc2nc1Cl
  -22.6%	-6.8%	3.6%	1.4%	-11.7%	-0.7%	-5.8%	-8.5%
COc1cc(CNC(C)c2ccccc2)c(Br)cc1OCC(N)=O (stereo not drawn)
  2.8%	-5.9%	-2.6%	0.3%	1.0%	-0.6%	-13.2%	-5.0%
O=C(Nc1ccccc1)Nc1ccno1
  11.9%	0.6%	1.5%	·	26.2%	·	1.9%	-0.3%
CCn1c(=O)cc(OCC(=O)Nc2ccccc2N2CCN(C)CC2)c2ccccc21
  1.5%	2.1%	-7.4%	-7.8%	·	-1.7%	-10.6%	?
Oc1cc(Cl)c(Cl)c(Cl)c1
  ·	·	-28.9%	-14.7%	·	-5.9%	?	·
COc1cc(C(=O)NCC(c2ccco2)N2CCCC2)ccc1OCc1c(C)noc1C (stereo not drawn)
  -20.7%	-1.4%	-11.2%	-7.6%	18.3%	4.2%	-3.8%	-4.8%
COc1ccc(C(=O)C(CN2CCOCC2)c2ccccc2)cc1F (stereo not drawn)
  8.91µM*	-37.8%	?	0.6%	?	-3.6%	?	-234.7%
O=C(COc1ccccc1)NCC1CCCO1 (stereo not drawn)
  7.2%	-5.0%	6.2%	-5.1%	5.7%	0.2%	27.8%	-15.0%
Cc1cc(C)n(CC2CC(=O)N(c3cc(Cl)cc(Cl)c3)C2=O)n1 (stereo not drawn)
  4.2%	-6.5%	·	-4.8%	13.0%	-2.6%	-8.6%	4.0%
CCC(C)c1ccc(NC(=S)N2CCCC2)cc1 (stereo not drawn)
  ?	-1.8%	-8.8%	·	?	·	8.5%	-46.0%
CCOc1ccc(CC(=O)NCc2ccc3c(c2)CCN3C(=O)c2ccccc2)cc1OCC
  ·	·	·	9.8%	?	4.4%	0.1%	·
CN(C)S(=O)(=O)c1cccc(C(=O)OCC(=O)Nc2ccccc2OC(F)F)c1
  2.3%[46.1 µM]	3.3%	1.8%	-2.4%	-2.3%	0.1%	-8.9%	-7.4%
CC(C)n1c(COc2ccccc2)nc2ccccc21
  ?	1.7%	-4.0%	·	-7.3%[46.1 µM]	·	-3.0%	-47.3%
Cc1cc(NC(=O)CSCC(=O)OCC(=O)Nc2cc(C)c(C)cc2[N+](=O)[O-])no1
  13.6%	-1.8%	7.9%	·	7.2%	·	0.3%	·
CCCc1cc(=O)oc2c3c(cc(OCC(=O)NCC4CCC(C(=O)O)CC4)c12)OC(C)(C)CC3 (stereo not drawn)
  ·	6.7%	0.0%	·	·	·	-19.5%	9.5%
O=C(O)c1ccc(/C=N/Nc2ccc(Cl)nn2)cc1
  7.6%[46.1 µM]	1.7%	-2.6%	·	0.0%[46.1 µM]	·	18.1%	7.1%
O=C(C1=C(O)C(=O)N(CC2CCCO2)C1c1cccnc1)c1ccco1 (stereo not drawn)
  1.8%	-1.1%	6.9%	-0.7%	1.7%	-0.4%	9.9%	1.0%
O=C(CSCc1ccc(Cl)cc1)Nc1ccccc1O
  -1.8%[46.1 µM]	-0.3%	-1.2%	·	?	·	-1.6%	-8.4%
O=C(NNc1cc(Cl)ccc1Cl)c1cccs1
  -17.2%[46.1 µM]	-3.2%	184.0%	·	5.3%	·	-17.3%	-6.5%
C=CCNC(=O)COC(=O)/C=C/c1cccs1
  3.4%[46.1 µM]	2.4%	?	·	-1.5%[46.1 µM]	·	-10.6%	·
CCCOc1ccc(-c2csc(NC(=O)CN3C(=O)CCC3=O)n2)cc1
  -19.0%	2.8%	-2.6%	?	12.8%	2.9%	-23.7%	-17.6%
Cc1ccc(C(=O)NCCc2nnc3ccc(N4CCCC4)nn23)cc1
  6.1%	13.3%	-9.3%	·	?	·	-2.9%	-7.4%
CC1(N2CCCCC2)CC2(O)C(=[N+]1[O-])CCC/C2=N\O (stereo not drawn)
  -15.6%[46.1 µM]	2.0%	-4.5%	-4.9%	8.0%	1.9%	2.6%	2.6%
N=C1C2=C3Sc4ccccc4N3CCCC2=NN1c1cccc(S(=O)(=O)O)c1
  0.5%[46.1 µM]	0.7%	-6.8%	·	23.0%	·	-14.2%	4.8%
CC1CC(C)CN(c2oc(-c3ccccc3F)nc2C#N)C1 (stereo not drawn)
  ·	2.0%	11.1%	·	-5.6%	·	-13.9%	-0.3%
COc1ccc(-c2nnc3ccc(SCC(=O)Nc4nc5ccccc5s4)nn23)cc1OC
  -25.9%	15.9%	0.1%	?	17.4%	-3.8%	6.5%	5.3%
Cc1ccc(CNC(=O)c2cc(-c3ccc(C)cc3)nc3n[nH]c(-c4cccc([N+](=O)[O-])c4)c23)cc1
  ·	·	·	11.7%	2.3%[46.1 µM]	2.9%	-17.0%	·
Cc1c(C(=O)N2CCC(C(=O)Nc3ccc(F)c(Cl)c3)CC2)sc2nc[nH]c(=O)c12
  ·	·	·	1.1%	1.4%[46.1 µM]	-4.5%	-22.5%	·
O=C(CSc1ccc(-c2cccnc2)nn1)Nc1ccc(F)cc1F
  -1.4%	-5.7%	-14.6%	·	-1.3%	·	-27.4%	-15.6%
Cc1onc(-c2ccccc2)c1C(=O)Nc1ccc(OC(C)C)cc1
  ·	-21.7%	15.3%	-5.0%	·	-6.9%	0.708µM*	-47.7%
Fc1ccc(Nc2nc3ccccc3c3nncn23)c(Cl)c1
  -15.3%[46.1 µM]	·	·	3.1%	0.4%[46.1 µM]	-1.0%	-10.2%	·
CCN(CC(=O)NCc1ccc(Cl)cc1)S(=O)(=O)c1ccc(F)cc1
  -15.9%	-0.1%	-24.2%	·	4.3%	·	18.1%	-7.3%
CC(C)OC(=O)c1c(NC(=O)c2cc3nc(-c4ccccc4)cc(C(F)(F)F)n3n2)sc2c1CCCC2
  ·	·	·	1.7%	5.8%[46.1 µM]	2.9%	-1.4%	·
COc1cccc(NC(=O)/C=C/c2ccco2)c1
  ?	-4.1%	?	·	-18.8%	·	38.2%[activator]	·
Cc1ccc(Oc2ccc3c(c2)C(=O)N(c2ccc(S(=O)(=O)Nc4nccs4)cc2)C3=O)cc1
  -2.8%	4.8%	7.8%	-20.1%	4.2%	-0.5%	31.9%[activator]	21.8%
O=c1c2ccccc2c(-c2cccc(C(F)(F)F)c2)nn1-c1ccccc1
  ?	0.5%	-0.9%	·	?	·	-4.8%	4.9%
CC1CCCC(C)N1Cc1cn2ccccc2n1 (stereo not drawn)
  14.2%	2.4%	-6.6%	-5.8%	1.6%	6.1%	-19.7%	-8.5%
O=C(Nc1ccc(N2CCC(c3ccccc3)C2)c(C(=O)O)c1)c1ccc(Cl)cc1 (stereo not drawn)
  ·	·	·	-3.4%	-22.7%[46.1 µM]	0.9%	-5.7%	·
COc1ccc(N2C(=O)CS(=O)(=O)C23C(=O)N(Cc2ccc(C)cc2)c2ccccc23)cc1Cl (stereo not drawn)
  ·	·	·	2.51µM*	?	-4.0%	-33.6%	·
